Bioassay records as filed in PubChem.
BJeLR viability – BJeLR cell viability loss, primary screen, luminescence, CellTiterGlo ATP | BJeLR fibroblasts viability, 48 h; HRASV12, hTERT and SV40 LT/ST transformed | viability loss activity score, % (concentration not given with the values) | 30,000 tested, 0.64% active | AID 2275, 2010; in the data active means viability loss activity score above about 50%; inconclusive means no clear call, values can overlap the other calls; inactive means below about 35%; about a fifth of its hits are not listed in these tables;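 further: higher score means fewer live cells and less ATP luminescence; stock transfer was 50 or 100 nL into about 30 µL; 0% = vehicle wells and 100% = a reference killing control; one replicate is shown; the record names a cut of 85%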
A1 inhib – inducers of caspase activity in MEF A1-2A-BIM cells, primary screen, A1 inhibitor project, cell-based, CaspaseGlo luminescence; 21,000 tested, 0.51% active; caspase-Glo luminescence, 3 h; percent of clofoctol signal, DMSO as zero; caspase activation, % (concentration not given with the values);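 active means most replicate scores above 10, or exactly half above 10 with mean activity above 10; inconclusive means mean activity below 10 while half the replicates exceed 10; inactive means most replicate scores below 10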;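 further: effector caspase 3 and 7 activity cleaving a DEVD luciferin substrate; 50 nL library stock added to about 30 µL; numbers are from one replicate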
* = called active by the depositor; ? = inconclusive; nt = no result given; & = joins results of further samples. These rows are one share of the data, so the mix of outcomes need not match the whole.

SMILES | BJeLR viability | A1 inhib
Cc1ccc(S(=O)(=O)Nc2cccc3c2O[C@@H](CN(C)CC2CC2)[C@@H](C)CN([C@H](C)CO)C3=O)cc1 | -4.5 | nt
C[C@@H]1CN([C@@H](C)CO)C(=O)c2cccc(NC(=O)c3ccc(-c4nccs4)cc3)c2O[C@@H]1CN(C)Cc1ccc(-c2ccccc2)cc1 | 2.0 | nt
COc1ccc(S(=O)(=O)Nc2ccc3c(c2)C(=O)N([C@H](C)CO)C[C@H](C)[C@@H](CN(C)C)O3)cc1 | 0.2 | -0.2
CN(CCC#N)C(=O)c1nn(C)c2c1COc1ccccc1-2 | -7.5 | 0.7
C[C@H]1CN([C@@H](C)CO)C(=O)c2cccc(NC(=O)Nc3ccc4c(c3)OCO4)c2O[C@@H]1CN(C)CC1CC1 | -4.0 | nt
CCOC(=O)c1ccc(NC(=S)NC(C)c2ccc3c(c2)OCCO3)cc1 (centres undefined) | -2.3 | 0.2
C[C@@H]1CN([C@H](C)CO)C(=O)c2cccc(NS(=O)(=O)c3ccccc3)c2O[C@@H]1CN(C)Cc1ccc(C(=O)O)cc1 | 1.9 | nt
COC(=O)c1cc(=O)n(CCc2ccccc2)c(=NCCc2ccccc2)s1 | -6.9 | nt
N#CNC(=Nc1ccccc1C(F)(F)F)N1CCCC1 | 5.7 | 0.8
CC/C=C\C/C=C\C/C=C\CCCCCCCCCCCC(=O)O | -6.9 | 0.4
CC(C)Cc1nn(-c2ccccc2)cc1/C=C1\CCC(C2CCCC2)C1=O (centres undefined) | -0.3 | nt
C[C@@H]1CN([C@@H](C)CO)C(=O)c2cc(NS(=O)(=O)c3cn(C)cn3)ccc2O[C@@H]1CN(C)S(=O)(=O)c1ccccc1 | 3.7 | 1.3

Shown comma-delimited: 6 of the compounds above
Molecule,BJeLR viability,A1 inhib
CN(CCC#N)C(=O)c1nn(C)c2c1COc1ccccc1-2,-7.5,0.7
COC(=O)c1cc(=O)n(CCc2ccccc2)c(=NCCc2ccccc2)s1,-6.9,nt
N#CNC(=Nc1ccccc1C(F)(F)F)N1CCCC1,5.7,0.8
CC/C=C\C/C=C\C/C=C\CCCCCCCCCCCC(=O)O,-6.9,0.4
COc1ccc(S(=O)(=O)Nc2ccc3c(c2)C(=O)N([C@H](C)CO)C[C@H](C)[C@@H](CN(C)C)O3)cc1,0.2,-0.2
C[C@@H]1CN([C@@H](C)CO)C(=O)c2cc(NS(=O)(=O)c3cn(C)cn3)ccc2O[C@@H]1CN(C)S(=O)(=O)c1ccccc1,3.7,1.3

New compounds follow
SMILES | BJeLR viability | A1 inhib
CC1(C)CC(=O)C2=C(C1)N1C(=C(C#N)C2c2cccnc2)N=C(N)c2ccccc21 (centres undefined) | -1.2 | nt
C[C@H](CO)N1C[C@H](C)[C@H](CN(C)S(=O)(=O)c2ccccc2)Oc2c(NC(=O)Nc3ccc(F)cc3)cccc2C1=O | 0.2 | nt
C[C@@H]1CN([C@@H](C)CO)C(=O)c2cccc(NC(=O)Nc3ccc(F)cc3)c2O[C@H]1CN(C)C | 1.6 | nt
COc1ccccc1CNS(C)(=O)=O | 4.7 | -0.3
COc1ccc(NC(=O)Nc2ccc3c(c2)C(=O)N([C@H](C)CO)C[C@H](C)[C@H](CN(C)C(=O)NC2CCCCC2)O3)cc1 | 1.2 | 0.5
O=C(NCSC1=NCCS1)c1ccccc1 | -2.0 | 0.2
C[C@@H]1CN([C@@H](C)CO)C(=O)c2cccc(NS(=O)(=O)c3cccs3)c2O[C@@H]1CN(C)S(=O)(=O)c1ccc(Cl)cc1 | 2.0 | nt
COc1ccc(-c2noc(=O)n2CC(=O)N2CCC(C)CC2)cc1 | 1.4 | 0.9
Cc1ccc(N=Cc2cc3ccccc3nc2Cl)cc1Cl | 1.3 | 1.9
O=C(NCCN1CCN(Cc2ccccc2)CC1)c1ccc2c(Cl)c3c(nc2c1)CCCC3 | -2.5 | nt
C[C@@H]1CN([C@@H](C)CO)C(=O)c2cccc(NC(=O)C3CCOCC3)c2O[C@@H]1CN(C)CC1CCCCC1 | 1.5 | nt
Cn1c2c(c(=O)n(C)c1=O)CN(CC1CC1)CN2 | -4.8 | nt
CC1=C(C(=O)OC2CC(C)CCC2C(C)C)C(c2ccc(Br)cc2)n2nnnc2N1 (centres undefined) | -1.4 | nt
Cc1noc(C)c1NC(=O)N(C)C[C@@H]1Oc2ccc(NS(C)(=O)=O)cc2C(=O)N([C@@H](C)CO)C[C@@H]1C | 0.8 | -0.3
COc1ccc(N2CCC(CNC(=O)Nc3ccccc3)C2)cc1 (centres undefined) | -4.2 | -0.5
O=C(NCc1ccco1)c1cc(-c2ccc(Cl)cc2)oc1C(F)(F)F | 1.9 | -0.1
CCOC(=O)C1CCCN(Cc2nc(N)nc(Nc3ccc(Cl)cc3)n2)C1 (centres undefined) | 11 | 0.2
C[C@H](CO)N1C[C@H](C)[C@H](CN(C)Cc2ccc(-c3ccccc3)cc2)Oc2ccc(NC(=O)NC3CCCCC3)cc2C1=O | -6.6 | -2.4
COc1cc(-c2coc3cc(OCc4ccccc4)c(OC)c(O)c3c2=O)cc(OCc2ccccc2)c1OC | -4.2 | -0.1
CC1=C(C#N)C(c2cc(F)ccc2F)C(C(=O)OCc2ccccc2)=C(N)O1 (centres undefined) | -1.2 | -0.1
C/C(=N\O)c1ccc2c(c1)CCO2 | 0.9 | 0.1
CCN(c1cccc(C)c1)S(=O)(=O)c1c(C)[nH]c(=O)[nH]c1=O | -1.9 | nt
CCn1c(C(=O)N2CCC(C(=O)NC3CCCCCC3)CC2)cc2sccc21 | -0.1 | 0.7
CC(C)NC(=O)N(C)C[C@H]1Oc2c(NS(=O)(=O)c3ccccc3)cccc2C(=O)N([C@H](C)CO)C[C@@H]1C | -1.4 | nt

In the list so far, 2 have a COOH group.
SMILES | BJeLR viability | A1 inhib
C[C@@H]1CN([C@H](C)CO)C(=O)c2cccc(NS(=O)(=O)c3ccccc3)c2O[C@@H]1CN(C)Cc1ccc(C(=O)O)cc1 | 1.9 | nt
CC/C=C\C/C=C\C/C=C\CCCCCCCCCCCC(=O)O | -6.9 | 0.4

Carrying on:
SMILES | BJeLR viability | A1 inhib
COc1ccc(CNCc2ccc(C)cc2)cc1 | 2.8 | -0.8
O=C(CCc1ccc(O)cc1)c1c(O)cc(O)cc1O[C@@H]1O[C@H](CO)[C@@H](O)[C@H](O)[C@H]1O | -4.8 | 0.0
Cc1ccc(S(=O)(=O)N(C)C[C@H]2Oc3c(NC(=O)c4cc(C)nn4C)cccc3C(=O)N([C@@H](C)CO)C[C@@H]2C)cc1 | 2.4 | nt
C[C@@H]1CN([C@@H](C)CO)C(=O)c2cc(NC(=O)Nc3cccc4ccccc34)ccc2O[C@@H]1CN(C)S(C)(=O)=O | 2.6 | 0.3
C[C@H](CO)N1C[C@H](C)[C@H](CN(C)S(=O)(=O)c2ccc(F)cc2)Oc2ccc(N(C)C)cc2C1=O | -4.8 | 0.5
C[C@@H]1CN([C@H](C)CO)C(=O)c2cc(NC(=O)Nc3ccc4c(c3)OCO4)ccc2O[C@H]1CN(C)C(=O)Nc1ccc2c(c1)OCO2 | -3.6 | 0.3
CC(C)NC(=O)Nc1ccc2c(c1)C(=O)N([C@@H](C)CO)C[C@H](C)[C@@H](CN(C)Cc1ccc(Oc3ccccc3)cc1)O2 | -1.5 | 0.0
CN1C(=O)CC[C@H]1c1cccnc1 | ? | 0.2
CCCCOc1cc(C(=O)NCCN(CC)CC)c2ccccc2n1 | 4.4&1.7 | 1.3&-0.2
COC(=O)c1sccc1OC(=O)c1nn(-c2ccccc2)nc1C | 0.5 | 0.2
CCCc1ccc(OCc2ccc(C(=O)NCc3cccnc3)o2)c(OC)c1 | -4.2 | 1.3
O=C(O)C1CCCN(S(=O)(=O)c2ccccc2)C1 (centres undefined) | 2.1 | 0.3
C[C@@H]1CN([C@H](C)CO)C(=O)c2cc(NC(=O)Nc3cccc4ccccc34)ccc2O[C@H]1CN(C)C(=O)Nc1ccc(C(F)(F)F)cc1 | 1.5 | 0.2
COc1ccc(CN(C)C[C@@H]2Oc3ccc(NS(=O)(=O)c4ccc(OC)cc4)cc3C(=O)N([C@H](C)CO)C[C@@H]2C)cc1 | -2.4 | 0.0
C[C@@H]1CN([C@@H](C)CO)C(=O)c2cccc(NS(=O)(=O)c3ccc(F)cc3)c2O[C@@H]1CN(C)C(=O)NC1CCCCC1 | -2.6 | nt
CC1CCCC(C)N1C(=O)c1cc(-c2ccc(Cl)cc2)on1 (centres undefined) | -3.0 | nt
COc1ccc(S(=O)(=O)Nc2cccc3c2O[C@H](CN(C)Cc2ccc(C(F)(F)F)cc2)[C@@H](C)CN([C@H](C)CO)C3=O)cc1 | -0.5 | nt
O=C1Nc2ccccc2S/C1=C\C(=O)N1CCN(c2ccccc2)CC1 | 0.3 | 0.7
Cc1noc(C)c1NC(=O)N(C)C[C@@H]1Oc2c(NS(=O)(=O)c3ccc(F)cc3)cccc2C(=O)N([C@H](C)CO)C[C@@H]1C | -1.9 | nt
Cc1cc2nc3c(=O)[nH]c(=O)nc-3n(CC(O)C(O)C(O)CO)c2cc1C (centres undefined) | -3.9 | 1.4
Cc1cc(C(F)(F)F)nc(SCCNC(=O)Cc2ccc(F)cc2)n1 | 4.5 | -0.7
O=C(CC(c1ccccc1)c1ccccc1)NCCN1CCOCC1 | -4.0 | 0.4
COc1ccc(S(=O)(=O)N(C)C[C@H]2Oc3c(NS(=O)(=O)c4ccccc4)cccc3C(=O)N([C@@H](C)CO)C[C@@H]2C)cc1 | 7.0 | nt
O=C[C@@H]1CCCN1C(=O)[C@@H]1CCCN1C(=O)OCc1ccccc1 | -0.3 | 0.0
NN1C(=O)/C(=C\c2ccccc2)SC1=S | 0.4 | nt
CC(C)NC(=O)Nc1cccc2c1O[C@H](CN(C)C(=O)Nc1ccc3c(c1)OCO3)[C@H](C)CN([C@@H](C)CO)C2=O | -1.3 | nt
CC1(C)NC(=O)N(CC(O)Cn2c3ccccc3c3ccccc32)C1=O (centres undefined) | 4.1 | nt
CO[C@H]1CC(O[C@@H]2/C(C)=C/C[C@@H]3C[C@@H](C[C@]4(CC[C@H](C)[C@@H](C5CCCCC5)O4)O3)OC(=O)[C@@H]3C=C(C)/C(=N/O)[C@H]4OC/C(=C\C=C\[C@@H]2C)[C@]43O)O[C@@H](C)C1O (some centres undefined) | -0.8 | 0.1
O=c1[nH]ncc2c3ccccc3n(Cc3ccc(F)cc3)c12 | 4.6 | -0.3
C[C@H]1CN([C@@H](C)CO)C(=O)c2cc(NS(=O)(=O)c3cccs3)ccc2O[C@@H]1CN(C)Cc1ccc2c(c1)OCO2 | -1.9 | 0.4
C[C@H]1CN([C@@H](C)CO)C(=O)c2cc(NC(=O)c3ccncc3)ccc2O[C@H]1CN(C)S(=O)(=O)c1cn(C)cn1 | -5.7 | 0.1
C[C@@H]1CN([C@@H](C)CO)C(=O)c2cc(NC(=O)C3CCCCC3)ccc2O[C@H]1CN(C)Cc1ccc2c(c1)OCO2 | 3.9 | 0.6
COc1ccc(C2=NN3COc4ccccc4C3C2)cc1 (centres undefined) | -0.8 | -4.9
Cc1noc(C)c1NC(=O)N(C)C[C@@H]1Oc2ccc(N(C)C)cc2C(=O)N([C@H](C)CO)C[C@@H]1C | 0.2 | 0.7
CSc1ccc(/C=N/N(C)S(=O)(=O)c2ccc(C)cc2)cc1 | 3.4 | -0.5
COc1ccc2c(c1)C(=O)N(CCc1ccc(S(=O)(=O)NC(=O)NC3CCCCC3)cc1)C(=O)C2(C)C | -1.8 | 0.3
NC(=O)N1c2ccccc2C=Cc2ccccc21 | 4.9 | -0.6
O=C(Nc1nccs1)c1cccc(S(=O)(=O)N2CCCCC2)c1 | 1.4 | -0.1
C[C@@H]1CN([C@H](C)CO)C(=O)c2cc(NC(=O)CCCCCC(=O)Nc3ccccc3N)ccc2O[C@H]1CN(C)C(=O)NC1CCCCC1 | 1.2 | nt
S=C1NCN(Cc2ccccc2)CN1Cc1ccccc1 | -2.0 | 0.6
CN(C)N1C(N)=C(C#N)C(c2ccccc2)C2=C1CCCC2=O (centres undefined) | 5.5 | 0.7
CC(C)NC(=O)Nc1ccc2c(c1)C(=O)N([C@H](C)CO)C[C@@H](C)[C@@H](CN(C)S(=O)(=O)c1ccccc1)O2 | 13 | -0.3
C[C@@H]1CN([C@H](C)CO)C(=O)c2cc(NC(=O)Nc3ccc(C(F)(F)F)cc3)ccc2O[C@@H]1CN(C)Cc1ccc(Cl)c(Cl)c1 | -2.5 | -0.4
C[C@H](CO)N1C[C@H](C)[C@@H](CN(C)C(=O)Nc2ccc(F)cc2)Oc2ccc(NS(=O)(=O)c3ccccc3)cc2C1=O | 3.4 | -0.6
COc1cc(C(CC(=O)O)CC(=O)N2CCC(n3cccc3)CC2)cc(OC)c1OC (centres undefined) | -0.1 | nt
COc1ccc(NC(=O)Nc2cccc3c2O[C@H](CN(C)C)[C@H](C)CN([C@@H](C)CO)C3=O)cc1 | 0.8 | nt
COc1ccc(S(=O)(=O)N(C)C[C@H]2Oc3c(NC(=O)NC(C)C)cccc3C(=O)N([C@@H](C)CO)C[C@@H]2C)cc1 | 0.3 | nt
Cc1ccc(S(=O)(=O)Nc2ccc3c(c2)C(=O)N([C@@H](C)CO)C[C@@H](C)[C@H](CN(C)CC2CC2)O3)cc1 | -2.7 | 0.2
COC(=O)c1c(NC(=O)c2ccccc2)sc2c1CCC2 | -0.1 | -0.6
